Source: PubChem
Cruzain noTriton = inhibitors of Trypanosoma cruzi cruzain without detergent | hit rate 2.3% among 200,000 | purified cruzain, Z-FR-AMC fluorescence, no detergent | Potency, µM, for inactives: max response, negative = inhibition, most hits filed as inhibitors | P25779; active = well fitted curve in the direction sought with a large enough effect; inconclusive = small, poorly fitted or top-dose-only effect, or another doubt; inactive = no such curve, though single readings can be large; an effect the other way counts as inactive or inconclusive;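 also: plate controls were enzyme without inhibitor for no effect and buffer without enzyme for full effect; nearly all actives have a fitted effect of over 40% in size; top concentration of the series not given in the record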
Target sequence (P25779 123-467 limits assumed): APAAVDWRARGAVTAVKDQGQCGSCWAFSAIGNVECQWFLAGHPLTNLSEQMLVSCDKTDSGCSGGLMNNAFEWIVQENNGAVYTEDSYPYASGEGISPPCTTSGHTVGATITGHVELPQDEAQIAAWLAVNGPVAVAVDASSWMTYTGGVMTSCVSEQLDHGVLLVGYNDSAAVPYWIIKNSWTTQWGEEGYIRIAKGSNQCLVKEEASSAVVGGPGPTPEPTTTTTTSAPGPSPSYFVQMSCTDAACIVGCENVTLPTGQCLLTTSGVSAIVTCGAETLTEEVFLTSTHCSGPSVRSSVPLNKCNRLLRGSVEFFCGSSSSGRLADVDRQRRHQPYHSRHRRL
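Detergent-free condition (0.00005% Triton X-100) in acetate buffer pH 5.5 with DTT. 1.5 nM enzyme and compound were pre-mixed 15 min, then 2 uM Z-FR-AMC substrate added; reaction progress from fluorescence change between first and third reads (60 s).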
2A StopGo = FMDV 2A StopGo reporter, luciferase signal | human cells with a luciferase reporter of 2A StopGo recoding; control for the full effect not named in the record | Potency, µM (series often up to 57.9 µM), for inactives: at the top dose signal change, negative = less light | hit rate 1.2% among 410,000 | AID 1159524; active = well fitted falling curve with a large enough effect; inconclusive = small, poorly fitted or top-dose-only effect; inactive = no such curve, though single readings can be large or run the other way; tested in HEK293T cells; also: % is scaled to controls: 0 for no effect and ±100 for the full control effect; nearly all actives have a fitted effect of over 45% in size; luciferase light after 4 h
LASV entry inh = Lassa virus entry inhibition; hit rate 1.2% among 300,000; Lassa virus pseudotype entry inhibition, cell reporter; control for the full effect not named in the record; Potency, µM (series often up to 37.9 µM), for the others: top-dose activity change, negative = inhibition, hits mostly inhibitors; active means well fitted inhibition curve with a large enough effect; inconclusive means small, poorly fitted or top-dose-only effect, or effect the other way; inactive means flat fitted curve, though single readings scatter; tested in HEK293 cells; also: % is scaled to controls: 0 for no effect and ±100 for the full control effect; nearly all actives have a fitted effect of over 50% in size; luciferase read-out
NS1 inh = inhibitors of influenza NS1 protein function; hit rate 0.4% among 270,000; Potency, µM (titrated, usually from 46.1 µM), without a hit: at the top dose activity, positive = more growth; S. cerevisiae slowed by influenza A NS1, growth recovery by OD600; AID 2326; also: actives are rising curves; nearly all actives have a fitted effect of over 50% in size
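Compounds were scored for reversing the slow growth caused by influenza A NS1 in S. cerevisiae, measured by optical density at 600 nm. Assay medium contained 2% galactose at pH 6.0; NS1-free yeast of the same strain were the positive control.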
Marburg entry inh = Marburg virus entry inhibition | Marburg virus pseudotyped entry inhibition, cell reporter; control for the full effect not named in the record; about a third of the inactives were read at about 46 µM | Potency, µM (highest dose often 37.8 µM), for the others: at the highest dose activity change, negative = inhibition, hits mostly inhibitors | hit rate 1.8% among 300,000 | AID 540276; active = well fitted inhibition curve with a large enough effect; inconclusive = small, poorly fitted or top-dose-only effect, or effect the other way; inactive = flat fitted curve, though single readings scatter; tested in HEK293 cells; about a fifth of its hits are not listed in these tables; also: % is scaled to controls: 0 for no effect and ±100 for the full control effect; luciferase read-out
SARS PLpro yeast = inhibitors of SARS-CoV papain-like protease in yeast; S. cerevisiae expressing SARS-CoV PLpro, growth rescue; control for the full effect not named in the record; Potency, µM (doses to about 32.9 µM), inactives show at the highest dose activity, positive = growth rescue; hit rate 0.19% among 330,000; AID 485353; also: 0% is about no effect; nearly all actives have a fitted effect of over 55% in size; growth read by luminescence after 48 h
Cruzain Triton = blocks cruzain activity in presence of Triton detergent; P25779; purified cruzain, Z-FR-AMC fluorescence, 0.01% Triton; Potency, µM, for the others: max response, negative = inhibition, usual class: inhibitors; hit rate 0.43% among 200,000; active = well fitted curve in the direction sought with a large enough effect; inconclusive = small, poorly fitted or top-dose-only effect, or another doubt; inactive = no such curve, though single readings can be large; an effect the other way counts as inactive or inconclusive;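 also: plate controls were neutral wells for no effect and buffer without enzyme for full effect; nearly all actives have a fitted effect of over 40% in size; top concentration of the series not given in the record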
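Read-out: AMC fluorescence (360 nm excitation, 450 nm emission), four reads over 2 min, first-to-third difference used. Conditions: cruzain 1.5 nM, Z-FR-AMC 2 uM, pH 5.5 acetate, 5 mM DTT, 0.01% Triton X-100.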
RE007 growth inh = less growth of the S. pombe RE007 Vpr strain; S. pombe RE007 Vpr strain, BacTiter-Glo ATP luminescence, 24 h; control for the full effect not named in the record; Potency, µM (top dose mostly 92.2 µM), for inactives: top-dose activity change, negative = less growth; hit rate 0.21% among 360,000; active = well fitted falling curve with a large enough effect; inconclusive = small, poorly fitted or top-dose-only effect; inactive = no such curve, though single readings can be large or run the other way;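 also: % is scaled to controls: 0 for no effect and ±100 for the full control effect; nearly all actives have a fitted effect of over 50% in size; the assay follows cell death caused by Vpr and the record does not say whether a fall means rescue or toxicity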
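Fission yeast strain RE007, carrying one chromosomally integrated HIV-1 vpr copy, was seeded at OD 0.01 in PMG+AL medium with 23 nL pinned compound. After 24 h at 30 °C and 99% humidity, viability was read by BacTiter-Glo luminescence.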
Starred values were filed as active, the others as inactive; ? = inconclusive; . = no result given; & = joins results of further samples; ! = not confirmed by another sample; [ ] = remark or other dose. Unless noted, calls follow the shape of the dose curve; as a rule, active means well fitted rising curve with a large enough effect; inconclusive means small, poorly fitted or top-dose-only effect; inactive means no such curve, though single readings can be large or run the other way. Potency is read from the fitted curve at half-maximal effect.

SMILES | Cruzain noTriton | 2A StopGo | LASV entry inh | NS1 inh | Marburg entry inh | SARS PLpro yeast | Cruzain Triton | RE007 growth inh
O=C(COc1ccccc1[N+](=O)[O-])N1CCCc2ccccc21 | . | 8.8% | -4.8%[46.1 µM] | -1.5% | 0.1%[46.1 µM] | -3.2% | . | -5.0%
O=C(CCC(=O)c1cccs1)NCc1ccc(F)cc1 | -1.9% | 7.8% | 13.1% | 3.0% | -11.6% | 1.1% | 3.7% | 18.1%
COc1cccc(NC2=NCCCS2)c1 | . | -14.3% | 22.1% | 9.0% | 24.3% | 0.2% | . | 0.9%
CCOC(=O)CC1C(=O)NCCN1S(=O)(=O)c1ccccc1 (configuration not stated) | . | -17.0% | 2.8%[46.1 µM] | 1.8% | -5.9%[46.1 µM] | 8.8% | . | -4.8%
Cc1ccc(N2C(=O)c3ccccc3C2C(=O)c2ccc(O)cc2O)cc1 (configuration not stated) | 1.5% | -17.0% | ? | -2.2% | ? | -2.7% | -13.3% | 1.4%
O=C(Nc1ccnn1C1CCN(C(=O)CCc2ccc(F)cc2)CC1)C1CCOC1 (configuration not stated) | . | -7.3% | ? | 2.6% | ? | 1.9% | . | -1.7%
COc1ccccc1C(=O)NCCc1nc2ccccc2n1C | 10µM* | 5.7% | 7.2% | -8.2% | -13.3% | 1.1% | ? | -9.7%
OC(COc1cc(Cl)c(Cl)cc1Cl)CN1CCN(c2ncccn2)CC1 (configuration not stated) | 14.4% | -26.1% | 0.8% | -13.0% | 0.0% | ? | -18.0% | -2.0%
N#Cc1ccc(C(=O)NN2C(=O)NC3(CCCCC3)C2=O)cc1 | . | -19.1% | ? | . | -23.1% | 3.6% | . | 11.5%
CCOc1ccc(C(=O)n2cnnc2N)cc1 | . | -21.9% | 18.8% | -3.8% | 0.4%[46.1 µM] | 0.1% | . | -5.2%
Cc1cc(C)cc(N(C(=O)Cn2nnc3ccccc32)C(C(=O)NCc2ccco2)c2ccncc2)c1 (configuration not stated) | 21.5% | 10.6% | -0.5% | -8.9% | 19.4% | -1.0% | 4.2% | 17.8%
NS(=O)(=O)c1ccc(CCNC(=O)C2CCCCC2)cc1 | -12.9% | -2.0% | -14.6% | 1.6% | 0.0% | 2.0% | -1.4% | -5.9%
O=C(N/N=C\c1ccc(F)cc1)c1ccc(F)cc1 | . | 69.1%[activator] | -12.6% | . | ? | -2.6% | . | -9.2%
COc1cccc(CCNC(=O)c2cc(COc3c(F)cccc3F)on2)c1 | . | -12.2% | . | -50.2% | . | -8.4% | . | -29.9%
COC(=O)c1cc(NC(=O)CCc2c(C)nc3c4c(C)cc(C)nc4nn3c2C)cc(C(=O)OC)c1 | -14.1% | ? | 0.9%[46.1 µM] | . | ? | . | 0.8% | .
COc1ccc(C(=O)NCCS(=O)(=O)N2CCc3ccccc3C2)cc1OC | . | -13.6% | -12.7% | . | 14.2%[46.1 µM] | -1.6% | . | 1.8%
CC1=NCCc2c1[nH]c1cc(O)ccc21 | 12.6µM*! | -7.9%&-18.6% | . | . | . | . | 28.2µM*! | -5.2%[18.4 µM]
N/C(COc1ccccc1)=N\NC(=O)c1cccnc1Oc1ccccc1 | 0.2% | -15.4% | -9.7% | ? | 0.9% | 16.2% | 6.6% | 13.1%
Cc1cc(C(F)(F)F)nn1Cc1n[nH]c(=S)n1Cc1ccccc1 | 5.1% | -10.5% | -0.1% | -2.7% | 6.7% | -16.8% | -3.5% | -6.4%[3.69 µM]
CCOC(=O)c1cnc2cc(-c3ccc(C)cc3)nn2c1-c1ccccc1 | 17.5% | -10.9% | ? | 7.6% | ? | 0.6% | -10.0% | -27.6%
COc1ccccc1CNC(=O)[C@H](C)NC(=O)C1CCN(C(=O)[C@@H](N)Cc2ccccc2)CC1 | . | -22.2% | . | -10.6% | . | -4.3% | . | -5.4%
Nc1c(-c2nc(-c3ccc4c(c3)OCO4)cs2)c2ccccn2c1C(=O)c1ccc(Cl)cc1 | ? | -1.7% | 25.6%[46.1 µM] | . | ? | . | 0.1% | .
COc1ccc(/C=N\NC(=O)c2ccc(F)cc2)cc1COc1ccccc1C(N)=O | . | ? | -19.6% | 11.2% | ? | 2.4% | . | -0.8%
O=C(Nc1ccccc1C(=O)O)c1cc(S(=O)(=O)Nc2ccccc2)ccc1Cl | . | 7.2% | 0.7%[46.1 µM] | 26.1% | ? | ? | . | 4.5%
COCCCNC(=O)C(=O)Nc1c2c(nn1-c1cccc(Cl)c1)CSC2 | ? | -22.8% | -4.9%[46.1 µM] | . | . | . | -3.2% | .
C/C(=N\NC(=O)c1nnn(-c2nonc2N)c1-c1ccc2c(c1)OCO2)c1ccccc1 | . | -10.0% | -22.5%[46.1 µM] | 20.1% | ? | 3.2% | . | -5.8%
CCOc1cc(C(=O)Nc2ccc([N+](=O)[O-])cn2)cc(OCC)c1OCC | 7.1% | 5.4% | ? | 1.5% | -9.0% | -0.4% | -3.9% | 7.6%
Cc1c(Cl)cnc(NC(=O)COC(=O)CCc2nc3ccccc3s2)c1Cl | -3.5% | -7.8% | 6.3% | 4.0% | 16.1% | 4.0% | -2.0% | 16.7%
Cc1ccc(OCC(=O)N2CCN(C(=O)c3cccnc3)CC2)cc1 | 11.8% | -1.0% | 16.9% | -1.1% | 28.8% | 14.9% | 0.9% | 4.5%
Cc1ccc(S(=O)(=O)c2nc(S(C)(=O)=O)sc2N(C)Cc2ccccc2)cc1 | -5.0% | 6.9% | ? | . | -2.2%[46.1 µM] | . | -8.0% | .
Cc1ccc(S(=O)(=O)c2nc(-c3ccco3)oc2SCC(=O)NCC2CCCO2)cc1 (configuration not stated) | 3.1% | . | 15.2% | -12.2% | -1.0% | 4.2% | 5.2% | 1.8%
COc1ccc(OC)c(N(CC(=O)NCC2CCCO2)S(=O)(=O)c2ccccc2)c1 (configuration not stated) | . | 20.6% | -1.3% | 3.6% | -10.3%[46.1 µM] | 1.8% | . | -8.1%
Clc1ccc(CCNc2nc3ccccc3n3nnnc23)cc1 | 25.1µM* | -5.4% | . | -4.4% | . | 0.1% | 3.5% | 8.6%
Cc1ccc(NC(=O)c2cccnc2)cc1S(=O)(=O)N(C)C | . | 9.1% | 7.6% | . | 12.5%[46.1 µM] | 1.6% | . | -7.0%
Cc1ccc(-n2c(SCC(=O)N/N=C/c3ccccc3OCC(=O)O)nc3ccccc3c2=O)cc1 | . | 16.0% | 5.1% | 3.4% | 5.0%[46.1 µM] | -1.1% | . | 3.4%
COc1ccc(S(=O)(=O)NCC(c2cccs2)S(=O)(=O)c2ccc(C)cc2)cc1F (configuration not stated) | -14.3% | 31.6%[activator] | ? | . | . | . | -5.3% | .
COc1cc(/C=N/NC(=O)C2CCN(CC(O)COCc3ccccc3)CC2)cc(OC)c1OC (configuration not stated) | . | 6.3% | ? | . | -4.4% | -0.2% | . | -2.6%
CCOc1cc(CNCC(C)C)c(Cl)cc1OCC(=O)Nc1ccccc1 | . | 15.4% | 14.9%[46.1 µM] | -0.3% | ? | 0.9% | . | -3.9%
NS(=O)(=O)c1ccc(CCNCc2cc(Br)ccc2OCc2ccccc2)cc1 | -4.1% | ? | ? | -2.2% | ? | 14.0% | -7.1% | .
CCc1cc2c(-c3ccccc3)cc(=O)oc2c(CN2CCOCC2)c1O | 4.4% | -19.2% | ? | -112.8% | 0.8% | ? | -5.9% | -4.8%
COc1ccc(N(CC(=O)Nc2cc(C)ccc2C)S(=O)(=O)c2c(C)noc2C)cc1 | . | -10.6% | . | 2.8% | . | -1.0% | . | 11.2%
COc1ccc(NC(=O)c2ccc(C#N)cc2)cc1NS(=O)(=O)c1ccc(F)cc1 | -11.0% | 5.0% | -25.1% | 1.6% | -3.2% | -19.9% | -4.0% | 11.2%
COc1cc2[nH]c(=O)c(C(=O)NCCCN3CCCCC3)c(O)c2cc1OC | -2.4% | -3.5% | 1.2% | 1.0% | ? | 0.5% | -0.5% | -4.6%
COc1ccc(C)cc1NC(=O)C(c1ccccc1)N1CCN(CC(=O)NC2CC2)CC1 (configuration not stated) | . | -16.2% | -5.1% | . | 1.3% | 4.1% | . | -6.5%
CCOc1ccc(N2C(=O)CC(N3CCOCC3)C2=O)cc1 (configuration not stated) | -0.5% | . | -1.6% | -16.2% | 21.8% | -17.1% | 1.0% | -6.3%
CCOc1ccc(NC(=O)CCN2CCN(C)CC2)cc1 | . | 9.8% | -3.4% | -17.9% | 27.0% | 12.9% | . | -14.9%
COc1ccc(S(N)(=O)=O)cc1C(=O)NC1CCCc2ccccc21 (configuration not stated) | . | 23.8% | 24.1% | 11.7% | ? | -0.1% | . | -14.9%
COc1ccc(OCC(=O)N/N=C(\C)CC(=O)Nc2ccc(OC)cc2[N+](=O)[O-])cc1 | . | -0.2% | -17.2% | . | 1.2% | -3.1% | . | -0.5%
CN1CCC(N(C)C(=S)NC(=O)c2cc(-c3cccc(Br)c3)nc3ccccc23)CC1 | . | -5.2% | 25.8% | 12.6% | 21.9%[46.1 µM] | 0.3% | . | -11.2%
O=C(CCN1C(=O)/C(=C/c2ccccc2Cl)SC1=S)NNC(=O)c1ccccc1O | . | 0.1% | ? | 8.5% | -21.4%[46.1 µM] | 3.0% | . | -10.3%
CCCCCC(=O)Nc1ncc2c(n1)CC(c1cccs1)CC2=O (configuration not stated) | . | -13.9% | . | -6.5% | . | 0.6% | . | 5.0%
CCOC(=O)c1ccc(NC(=O)CCCn2c(=O)c3cccn3c3ccccc32)cc1 | 3.0% | -17.2% | 24.6%[46.1 µM] | . | . | . | -0.9% | .
CC1(C)CC(=O)c2cn3nc(C(F)(F)F)nc3nc2C1 | -6.1% | -15.5% | -2.8% | 3.6% | 28.7% | 9.8% | 1.2% | 2.7%
